NPYLR7 agonist: mosquito NPYLR7 agonism | 270,000 compounds, 0.15% hits | activation, % at 10 µM | HEK293T NPYLR7/Galpha15, GCaMP6s calcium fluorescence; in the data active = activation above about 40%;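 note: 0% = vehicle and 100% = reference agonist at the receptor; some compounds past the cut are filed as inactive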
NPYLR7 agonist max-min: further read-out of NPYLR7 agonist, marked with its call; activation, %; measured here: Max-Min RFU normalised activation; some inactives read as strong as hits;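 span of the calcium signal over five minutes; 0% = vehicle and 100% = native peptide agonist; compound fluorescence can raise it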
The depositor's hits bear a star; & = joins results of further samples. These rows are one share of the data; count on the stated rates, not on these rows.

Every second line gives: NPYLR7 agonist | NPYLR7 agonist max-min
CN(Cc1cc(-c2ccncc2)no1)Cc1ccnc2ccccc12
  -7 | -11
c1cc(-c2ccc(-c3nccn3-c3ccc4cn[nH]c4c3)o2)[nH]n1
  -4 | -6
CCCCn1c(SCC(=O)NC(C)C)nc2c(-c3ccccc3)c[nH]c2c1=O
  2 | -4
O=C(c1ccn[nH]1)N1CCC(Nc2ccccc2F)CC1
  -2 | -4
COc1cccc(Cc2nsc(Oc3cc(C(=O)N4CCN(c5ccccc5F)CC4)ccc3C)n2)c1
  -2 | 11
Cc1ccc(OCCN2C(=O)c3ccccc3C2=O)c(C)c1
  6 | 4
N#CCCn1nc(-c2ccccc2)cc1-c1ccccc1
  -9 | -17
CCCn1c(C)cn2c3c(=O)n(CCN4CCCCC4)c(=O)n(C)c3nc12
  1 | 0
CCC(Cc1ccc(C)cc1)NC(=O)N1CCOCC1 (stereo not drawn)
  8 | 3
O=C(NCCN1CCCC1)[C@@]1(OCc2ccccc2)CC(OCc2cccc(Cl)c2)[C@H](O)[C@H](O)C1 (stereo partly drawn)
  5 | 11
CC(NC(=O)c1snnc1C(C)C)C1=CCCCC1 (stereo not drawn)
  23 | 18
COc1cccc2cc(C(=O)Nc3cccc(C(=O)O)c3C)c(=O)oc12
  -5 | -15
COc1cccc(-c2nc3ccccn3c2NC(=O)c2ccccc2F)c1
  -8 | 2
CNC(=O)Nc1cccc(NC(=O)Cc2cc(C)ccc2C)c1
  10 | 9
O=c1c(O)c(-c2ccccc2)oc2cc(O)ccc12
  -3 | -5
Cc1cc(NC(=O)CSc2ccc(-c3ccc(C)c(C)c3)nn2)no1
  11 | 3
Cc1ccc(NC(=O)N2CCCN(c3nc(Cc4ccc(F)cc4)ns3)CC2)cc1
  16 | 22
COc1ccccc1CN(CCc1c[nH]c2ccccc12)Cc1nc(C(=O)NCCc2ccccn2)co1
  -1 | 4
CN=C1CC(SC)=C1c1ccc(OC)cc1
  16 | 12
Cc1ccc(-n2nnnc2CN2CCN(C(=O)c3c[nH]c4ccccc34)CC2)cc1
  -2 | -4
COC(=O)c1ccc(CC2(C)C(=O)Nc3ccc(-c4ccccc4OC)cc32)o1 (stereo not drawn)
  -1 | 2
COc1cccc(CSc2nnc(CNC(=O)Nc3cccc(F)c3)n2-c2ccc(C)cc2)c1
  16 | 14
CCCCCC1C(=O)NC(SCC(=O)c2ccccc2)N(CC)C1=O (stereo not drawn)
  -6 | -12
N#Cc1c(N)nc2c(c1-c1ccc3c(c1)OCO3)CCCCC2
  15 | 10
Cc1nc2ccccc2nc1CN1CCCC(C(=O)c2ccc3c(c2)OCO3)C1 (stereo not drawn)
  10 | -3
CCOC(=O)Cn1c(Cl)c(/C=N\NC(=O)c2ccncc2)sc1=O
  -13 | -20
Cc1cc(F)cc2c(=O)c(C(=O)N3CCSC(C)C3C)c[nH]c12 (stereo not drawn)
  1 | -2
CCn1c(C)cc(O)c(C(c2ccccc2OC)N2CCN(c3ccc(F)cc3)CC2)c1=O (stereo not drawn)
  12 | 4
c1cc(-c2ccc(CN(Cc3ccsc3)CC3CCCO3)o2)[nH]n1 (stereo not drawn)
  21 | 11
COC(=O)c1nn(C)cc1N
  1 | -2

(continued)
Every second line gives: NPYLR7 agonist | NPYLR7 agonist max-min
CNC(=O)c1cccnc1N1C[C@@H]2C3CCC(CC3)[C@@H]2C1
  25 | 9
Cc1cccc(-n2c(CNC(=O)c3ccc(S(=O)(=O)N(C)C)cc3)nnc2SCC(=O)Nc2nccs2)c1
  -18 | -7
CCCNC(=O)Cn1c(=O)n(-c2cccc(C(C)=O)c2)c(=O)c2ccccc21
  -17 | -7
CC1C(=O)N(c2ccc(F)c(Cl)c2)CCN1C(=O)COc1ccc(Cl)cc1 (stereo not drawn)
  -3 | 3
CNC(=O)[C@H]1CN(C(=O)C2CCCCC2)[C@]2(C)C(=O)N(CCO)c3ccccc3[C@H]12
  4 | 10
Cc1cccn2c(=O)c3cc(C(=O)N(CC(C)C)CC(C)C)sc3nc12
  7&6 | -1&1
COc1cc(CNCC(F)(F)F)ccc1OCC(O)CN1CCSCC1 (stereo not drawn)
  -1 | -8
O=C(CSc1nnc(C2CC2)n1C1CC1)N1CCNC1=O
  8 | 7
O=C1NC2(CCCC2)CN(CCc2ccccc2)C1CC(=O)N1CCc2ccccc2C1 (stereo not drawn)
  25 | 15
NC(N)=NN=C1c2ccccc2-c2ccccc21
  3 | 2
Fc1cccc(CSc2nnc3ccc(-c4ccccc4)nn23)c1
  -19 | -14
Cc1cc(N(C)Cc2cc(C(C)(C)C)n[nH]2)nc(-c2cccnc2)n1
  13 | 0
Cc1csc2nc(O)c(C(=O)NC3CCCCCC3)c(=O)n12
  -2 | 45
COC(=O)c1cccc(-c2nc(CC3CCN(C)CC3)no2)c1
  8 | -1
Cn1c(SCc2ccccc2)nc2ccsc2c1=O
  2 | 3
O=C(c1cccc([N+](=O)[O-])c1)N1CCSC12CCNCC2
  -17 | -12
CCC(C)(C)NC(=O)c1ccc([N+](=O)[O-])cc1Cl
  0 | -1
Cc1cccc(NC(=O)CNC(=O)C(C)n2c(=O)oc3ccccc32)c1C (stereo not drawn)
  5 | 4
CC(C)C(C)(C#N)NC(=O)CN1CCc2ccccc21 (stereo not drawn)
  -2 | -2
c1ccc(Oc2cccc(CSc3nnc(-c4cc(-c5ccccc5)nc5ccccc45)n3Cc3ccco3)c2)cc1
  -6 | -6
CCc1oc2ccccc2c1CNC1CCN(C(=O)C2CC2)CC1
  -5 | -4
Cc1ccn(Cc2ncc(-c3ccc(Br)cc3)o2)c(=O)c1
  4 | 2
COc1ccc(-c2nc3cc(C)ccn3c2NC(=O)C(C)C)cc1
  -9 | -2
CCOC(=O)C1CCN(c2nc(C3CC3)ns2)CC1
  10 | 7
CC1(C(=O)Nc2nccs2)CCN1C(=O)C1CCCCC1 (stereo not drawn)
  4 | -1
CCc1c(C)nc(-c2ccc(C(F)(F)F)cc2)nc1N1CCN(C(=O)Nc2ccccc2Br)CC1
  17 | 17
CCNC(=O)N1CCC(C(NC(=O)c2ccc(F)cc2)C(=O)NC(C)C)CC1 (stereo not drawn)
  -8 | -16
Cc1ccc(C2=NN(C(=O)CN3CCC4(CC3)OCCO4)C(c3ccc4c(c3)OCO4)C2)cc1 (stereo not drawn)
  0 | 8
C=CCN(CC(=O)N1CCc2sccc2C1COc1cccc(OC)c1)C(=O)CC(C)C (stereo not drawn)
  -4 | -4
CC(=O)C(CC(=O)O)C1C(=O)CC(C)(C)CC1=O (stereo not drawn)
  0 | -3

A second format for part of the listing above.
Structure | NPYLR7 agonist | NPYLR7 agonist max-min
O=C1NC2(CCCC2)CN(CCc2ccccc2)C1CC(=O)N1CCc2ccccc2C1 (stereo not drawn) | 25 | 15
NC(N)=NN=C1c2ccccc2-c2ccccc21 | 3 | 2
Fc1cccc(CSc2nnc3ccc(-c4ccccc4)nn23)c1 | -19 | -14
Cc1cc(N(C)Cc2cc(C(C)(C)C)n[nH]2)nc(-c2cccnc2)n1 | 13 | 0

The list goes on:
Every second line gives: NPYLR7 agonist | NPYLR7 agonist max-min
Cc1ccccc1CN1CCN(c2ccc(F)cc2)C(=O)C1C (stereo not drawn)
  28 | 31
CC(c1ccc(Cl)cc1)C(C)N(C)C(=O)NCCS(C)(=O)=O (stereo not drawn)
  -2 | -9
CC(NC(=O)CC1C=CCC1)c1ccc(C(F)(F)F)cc1 (stereo not drawn)
  -1 | -3
Cc1nc2nc(N)nn2c(C)c1CCC(=O)OCC(=O)NC1CCCC(C)C1C (stereo not drawn)
  0 | 16
Cn1ccsc1=NC(=O)c1cc(Cl)c2c(c1)OCCO2
  6 | 2
OC[C@H]1O[C@@H](Oc2cc(O)cc(/C=C/c3ccc(O)cc3)c2)[C@H](O)[C@@H](O)[C@@H]1O
  -13 | -15
CC(NC(=O)c1cccs1)c1ccc(C(F)(F)F)cc1 (stereo not drawn)
  4 | 1
O=C(NCCOc1cc(N2CCCC2)ncn1)Nc1ccc(Cl)c(Cl)c1
  0 | -1
O=C1NC2(CCN(Cc3ccccc3[N+](=O)[O-])CC2)Nc2ccc(Br)cc21
  3 | 12
CCc1ccccc1NC(=O)c1c(NC(=O)Cc2ccccc2)sc2c1CCCC2
  1 | 2
COc1ccccc1-c1cc2c(SCC(=O)Nc3ccccc3C)nccn2n1
  -3 | -8
Cc1cc(=O)[nH]c(-n2nc(C3CC3)cc2NC(=O)COc2ccc(Cl)cc2Cl)n1
  -1 | -2
Cc1ccc(NC(=O)N2CCC(c3nc4ccccc4[nH]3)CC2)cc1C
  -2 | -4
Oc1oc(-c2cccc3ccccc23)nc1C=Nc1cccnc1Cl
  8 | 19
S=C(NCCCn1ccnc1)Nc1ccccc1
  5 | 2
CC(C)c1cc(C2CCN(C(=O)Cn3cncn3)CC2)[nH]n1
  0 | -3
NC(=O)c1cnc2n1CCN(C(=O)c1cccc3c1NCCC3)C2
  9 | 6
Cc1ccc(F)c(NC2CCCN(C(=O)COc3ccc(Cl)cc3)C2)c1 (stereo not drawn)
  1 | 8
CCCC1COCCN1C(=O)Cc1ccc(-n2cnnn2)cc1 (stereo not drawn)
  3 | 1
COCCNC(=O)Cn1cc(OC)c(=O)cc1CN1CCN(c2ccccc2)CC1
  -3 | -2
Cc1csc(NC(=O)Cc2cc(-c3ccc4c(c3)CC(C)O4)on2)n1 (stereo not drawn)
  8 | 9
COC(=O)c1cn(Cc2cccc(C#N)c2)nc1S(=O)(=O)N1CCCCC1
  -14 | -15
O=C(C1CCCN(Cn2ncc3ccccc3c2=S)C1)N1CCOCC1 (stereo not drawn)
  4 | 2
Cc1nonc1CN(C)Cc1cnc(S(=O)(=O)C(C)C)n1Cc1ccccc1F
  14 | 10
c1ccc2[nH]c(CN3CCCn4cncc4C3)cc2c1
  3 | 3
O=C(NCc1cccc(Cl)c1)c1ccccc1NS(=O)(=O)c1cccc(OC(F)(F)F)c1
  1 | 6
CCCSc1nnc(Sc2ncccc2C(N)=O)s1
  15 | 7
O=C(NCc1ccncc1)c1cccc(Nc2c(Oc3ccc4c(c3)CCC4)cnn(-c3cccc(Cl)c3)c2=O)c1
  12 | 17
CCOC(=O)c1csc(CN(CCCOC)C(=O)Nc2c(C(C)C)cccc2C(C)C)n1
  -8 | 3
C[n+]1c2cc(N)ccc2cc2ccc(N)cc21
  120* | 107*

New compounds follow.
Every second line gives: NPYLR7 agonist | NPYLR7 agonist max-min
c1ccc(-c2nc3ccccc3s2)nc1
  9&6 | 14&2
Cc1cn2c3c(=O)n(CCCc4ccccc4)c(=O)n(C)c3nc2n1CCO
  13 | 8
CCOC(=O)c1cnc2nc(-c3ccccc3)[nH]n2c1=O
  -13 | -23
Cc1ccc(-n2c(SCc3ccc(C(=O)NCc4ccc(F)cc4)cc3)nnc2-c2ccco2)cc1
  -1 | 3
O=C(Cn1c(-c2cnccn2)nc2ccccc21)Nc1nc(-c2ccco2)cs1
  1 | -1
NC(=O)NC(=O)CN1CCCC1Cc1cccc2ccccc12 (stereo not drawn)
  -25 | -28
CCN(CC)CCNC(=O)c1cc(NC(=O)Nc2ccc(F)cc2F)ccc1N1CCC(C)CC1
  0 | -2
CCc1cc(Oc2cccc(Cl)c2)nc(SCc2ccc(F)c(F)c2)n1
  2 | 12
CCOC(=O)N1CCN(C(c2cccc(Br)c2)C2Sc3nc(CC)nn3C2=O)CC1 (stereo not drawn)
  -3 | -8
Cc1ccsc1C(=O)N1CCC1(C)C(=O)Nc1cnc2ccccc2c1 (stereo not drawn)
  4 | 0
COc1cc2[nH]c(=O)c(CN3CCCC3)cc2c(OC)c1OC
  4 | 1
Cc1cccc(CN(C(=O)c2ccc(F)cc2)C2CCC(NC(=O)C3CCN(C(=O)c4ccc(Cl)cc4)CC3)CC2)c1 (stereo not drawn)
  30 | 24
Cc1ccc(CC2(C)C(=O)Nc3ccc(-c4ccc(F)c(Cl)c4)cc32)cc1 (stereo not drawn)
  2 | 1
Cn1ccc(NS(=O)(=O)c2ccccc2Br)n1
  3 | 0
CC1CCCCC1Nc1ccc2nnc(C(F)(F)F)n2n1 (stereo not drawn)
  -5 | -4
COc1cc(OC)c(OC)cc1C=Nn1c(-c2ccccc2)n[nH]c1=S
  10 | 5
O=C(c1ccco1)N(Cc1c(-c2ccccc2)noc1N1CCc2ccccc2C1)CC1CCCO1 (stereo not drawn)
  -2 | 21
CC(C)(C)n1ncc(NCC2CCCc3ccccc32)c(Cl)c1=O (stereo not drawn)
  -24 | -26
CC(C)C1NC(C(=O)O)Cc2c1[nH]c1ccccc21 (stereo not drawn)
  1 | 2
CCCc1ccc(OCC(O)CN2CC(C)OC(C)C2)cc1 (stereo not drawn)
  -8 | -11
Cc1nn(CC(N)=O)c(=O)c2c1cnn2C(C)(C)C
  12 | 6
CCOC(C)C(=O)NC(CN(C)C1CCN(C)CC1)c1ccccc1 (stereo not drawn)
  8 | -17
CCOc1cc(CN2CCCC(N3CCC(CO)CC3)C2)ccc1OC (stereo not drawn)
  4 | 5

Record cards, from the list above. Order of values: NPYLR7 agonist, NPYLR7 agonist max-min
Record of `CCCCCC1C(=O)NC(SCC(=O)c2ccccc2)N(CC)C1=O` (stereo not drawn) : -6, -12
Record of `COC(=O)c1cn(Cc2cccc(C#N)c2)nc1S(=O)(=O)N1CCCCC1` : -14, -15
Record of `COc1cc(OC)c(OC)cc1C=Nn1c(-c2ccccc2)n[nH]c1=S` : 10, 5

Screens as filed in PubChem BioAssay.
